Compound activity as filed in PubChem.
KCNQ2 block = KCNQ2 channel blockers in CHO-K1 cells – cell-based, FluxOR thallium flux, B-score, primary screen (AID 2156); B-score at 10 µM; 310,000 compounds, 1.1% hits; O88943; 20 min; stronger effect = lower value; only compounds with negative scores are shown here; some inactives read as strong as hits;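 active means fluorescence ratio B-score at most minus 3 library SDs, with starting brightness B-score within 2 library SDs, cut at about -5.5 in these data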
Target sequence (O88943 whole entry, looked up): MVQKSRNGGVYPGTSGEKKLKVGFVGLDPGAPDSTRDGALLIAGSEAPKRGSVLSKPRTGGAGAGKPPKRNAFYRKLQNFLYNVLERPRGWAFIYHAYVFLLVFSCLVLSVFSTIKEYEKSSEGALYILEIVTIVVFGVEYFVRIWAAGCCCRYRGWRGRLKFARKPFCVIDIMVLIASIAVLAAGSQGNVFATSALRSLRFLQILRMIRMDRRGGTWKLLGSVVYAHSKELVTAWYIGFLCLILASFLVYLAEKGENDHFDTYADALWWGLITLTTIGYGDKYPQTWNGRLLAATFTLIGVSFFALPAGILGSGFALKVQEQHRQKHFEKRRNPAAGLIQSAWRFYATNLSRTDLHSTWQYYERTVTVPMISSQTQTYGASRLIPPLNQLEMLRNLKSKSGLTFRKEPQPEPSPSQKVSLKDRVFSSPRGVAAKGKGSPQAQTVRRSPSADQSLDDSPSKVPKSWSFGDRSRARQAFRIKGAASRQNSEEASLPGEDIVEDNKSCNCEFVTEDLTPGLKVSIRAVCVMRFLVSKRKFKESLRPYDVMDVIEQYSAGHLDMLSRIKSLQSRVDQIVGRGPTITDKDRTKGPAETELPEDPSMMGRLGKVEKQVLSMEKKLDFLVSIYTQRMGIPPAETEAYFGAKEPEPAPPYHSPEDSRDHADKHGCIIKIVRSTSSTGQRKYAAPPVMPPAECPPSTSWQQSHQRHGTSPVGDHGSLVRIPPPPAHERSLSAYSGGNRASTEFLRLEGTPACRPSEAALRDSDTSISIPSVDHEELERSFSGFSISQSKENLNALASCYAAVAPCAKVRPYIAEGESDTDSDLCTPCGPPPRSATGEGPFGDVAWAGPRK
KCNQ2 block baseline = also measured in KCNQ2 block; calls as there; B-score; measured here: initial fluorescence intensity artifact check;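 brightness before thallium and not channel activity; 0 = typical well and far values either way flag optical interference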
Active calls of the source: *; i = inactive. The list is partial; count on the stated rates, not on these rows.

Sample of the layout:
mol	KCNQ2 block	KCNQ2 block baseline
CC1(C(=O)N2CC3(CC(c4ccccc4)=NO3)C[C@H]2C(=O)NCC(N)=O)CC1 (some centres not stated)	i	-0.18
CNC(=O)N(c1ccccc1)c1ccccc1	i	0.01

The listing, repeating the preview:
mol	KCNQ2 block	KCNQ2 block baseline
CC1(C(=O)N2CC3(CC(c4ccccc4)=NO3)C[C@H]2C(=O)NCC(N)=O)CC1 (some centres not stated)	i	-0.18
CNC(=O)N(c1ccccc1)c1ccccc1	i	0.01
Cc1ccnc(NS(=O)(=O)c2cccc([N+](=O)[O-])c2)c1	i	0.84
COCCCn1c(SCC(=O)c2ccccc2)nc2ccccc2c1=O	i	0.06
O=S(=O)(NC1CC(NS(=O)(=O)OCC(Cl)(Cl)Cl)C2CCCCC12)OCC(Cl)(Cl)Cl (configuration not stated)	i	0.23
Nc1nonc1-n1nnc(C(=O)N/N=C/c2ccoc2)c1-c1ccccc1	i	1.4
CC(=S)/C=C1\Sc2ccccc2N1C	i	0.95
CN(Cc1ccccc1)C(=O)Cn1c(=O)c2cccn2c2cccnc21	i	-0.23
Cn1cccc1/C=C1\SC(=O)N(c2ccccc2)C1=O	i	-0.64
COc1ccc(O)c(C(=O)c2cnc3nc4ccccc4n3c2)c1	i	0.59
CN(C)c1nc2ccc(OCCN3CCCCC3)cc2s1	i	-0.08
CC(=O)Nc1cccc(/C(C)=N/NC(=O)c2ccc(Cl)cc2Cl)c1	i	-1.9

Sorted by the number under KCNQ2 block baseline (highest first): 6 from the list above.
mol	KCNQ2 block	KCNQ2 block baseline
Cc1ccnc(NS(=O)(=O)c2cccc([N+](=O)[O-])c2)c1	i	0.84
O=S(=O)(NC1CC(NS(=O)(=O)OCC(Cl)(Cl)Cl)C2CCCCC12)OCC(Cl)(Cl)Cl (configuration not stated)	i	0.23
CNC(=O)N(c1ccccc1)c1ccccc1	i	0.01
CN(Cc1ccccc1)C(=O)Cn1c(=O)c2cccn2c2cccnc21	i	-0.23
Cn1cccc1/C=C1\SC(=O)N(c2ccccc2)C1=O	i	-0.64
CC(=O)Nc1cccc(/C(C)=N/NC(=O)c2ccc(Cl)cc2Cl)c1	i	-1.9

Other entries.
mol	KCNQ2 block	KCNQ2 block baseline
CC(C)(C)c1ccc(COC(=O)Nc2ccc(F)cc2)cc1	i	0.09
Cc1ccc2c([N+](=O)[O-])c(C)ccc2n1	i	-0.04
COc1ccc(NC(=O)c2oc3ccccc3c2NC(=O)C2CCCO2)cc1OC (configuration not stated)	i	0.2
CC(=O)Nc1ccc(Oc2ccc(NC(C)=O)c(NC(C)=O)c2)cc1	i	1.1
COC(=O)c1ccccc1-n1cccc1C(=O)NP(=O)(N1CCOCC1)N1CCOCC1	i	0.65
Cc1c(NC(=O)CN2CCN(c3ccc([N+](=O)[O-])cc3)CC2)c(=O)n(-c2ccccc2)n1C	i	-1.4
CN1CCN(CCCNC(=O)Nc2cccc3ccccc23)CC1	i	2.7
Cc1ccc(S(=O)(=O)N2CCCCC2)cc1C(=O)OC1CCCCC1=O (configuration not stated)	i	-0.02
CC1CN(c2ccc([N+](=O)[O-])c(NCCOc3ccccc3)c2)CCN1 (configuration not stated)	i	-1.7
CCOC(=O)c1[nH]c(C)c(C(=O)N2CCc3ccccc32)c1C	i	0.15
C(=N\c1nc2ccccc2n1CCN1CCCCC1)/c1cccs1	i	0.11
O=C(Nc1cccc(F)c1)/C(=C\c1ccco1)NC(=O)c1cccs1	i	-0.71

(further entries)
mol	KCNQ2 block	KCNQ2 block baseline
Cc1ccc(C)c(NC(=O)CCC(=O)N/N=C/c2cccnc2)c1	i	0.18
CCN(CC)S(=O)(=O)c1ccc(Oc2ccccc2)cc1	i	0.99
COc1ccc(Cl)c(OC)c1C(=O)NC(=O)Nc1c(F)cc(F)cc1F	i	-1.2
CCOC(=O)C1CCN(c2nc(-c3ccc(Br)cc3)nc3ccccc23)CC1	i	-2.9
CC(C)C(=O)Nc1ccc(C(=O)N2CCCCCC2)cc1	i	0.59
Cc1ccc(C)c(N2CCN(C(=O)c3cc4ccccn4n3)CC2)c1	i	5
NC(=O)/C=C/C(=O)Nc1ccc(Cl)cc1	i	-0.67
COc1cccc(NC(=O)c2ccc(NCCCN3CCC(C)CC3)c([N+](=O)[O-])c2)c1	i	-0.28
COc1ccccc1OCc1nc(Cc2ccc(Cl)cc2)no1	i	-0.03
COc1cc(C)ccc1OCc1cc(C(=O)NC(C)Cn2cncn2)no1 (configuration not stated)	i	-2.1
Cc1ccc(S(=O)(=O)Cc2ccc(C(=O)N3CCN(Cc4ccccc4)CC3)o2)cc1	i	0.94
Cc1ccccc1OCCC(=O)N1CCN(S(=O)(=O)c2ccccc2F)CC1	i	2.1

(listing goes on)
mol	KCNQ2 block	KCNQ2 block baseline
COc1ccc(NS(=O)(=O)c2cccc(C(=O)O)c2)cc1	i	-0.67
COc1ccc(NC(C)=O)cc1NC(=O)CN1CCN(CC(=O)Nc2ccc(Cl)cc2)CC1	i	0.03
CCOc1ccc(N2C(=O)CC(N(Cc3ccco3)C(=O)CC)C2=O)cc1 (configuration not stated)	i	0.14
Cc1ccc(OCC(=O)Nc2ccccc2-c2ccccc2NC(=O)COc2ccc(C)cc2)cc1	i	-1.1
COc1ccc(NC(=O)c2ccc[n+]([O-])c2)cc1	i	-0.66
CCn1c(SCC(=O)Nc2ccc(N3CCOCC3)cc2)nnc1-c1ccncc1	i	3.7
Cn1c(N)c(C(=O)COC(=O)C(Cc2ccccc2)NC(=O)c2ccccc2)c(=O)n(C)c1=O (configuration not stated)	i	0.08
C=CCNC(=O)/C(C#N)=C\c1cc(Cl)c(OCC)c(OC)c1	i	0.52
COC(=O)c1ccc(OCC(O)CN2CCN(C(=O)c3ccco3)CC2)c(OC)c1 (configuration not stated)	i	0.15
CCOC(=O)c1cc(CC)sc1NC(=O)COC	i	1.6
CN(C)S(=O)(=O)c1ccc(C(=O)NCCc2ccco2)cc1	i	0.5
COc1ccc(-c2cc(C(=O)O)c3sc(N4CCCCC4)nc3n2)cc1OC	i	2.3

Additional records:
mol	KCNQ2 block	KCNQ2 block baseline
O=C(NCCCc1ccccc1)c1cc([N+](=O)[O-])ccc1Cl	i	-0.53
N#CC1=C(N)N2C(=C(C#N)C1c1cccc(Br)c1)Nc1ccccc12 (configuration not stated)	i	-1.2
CC(=O)Nc1nnc(COc2ccccc2)s1	i	-1.1
Cc1ccc(NC(=O)/C(C#N)=C/c2ccc(C)s2)c(C)c1	i	-0.51
CN(C)c1ccc(C(C#N)c2ccccc2)nn1 (configuration not stated)	i	0.07
COCCNC(=O)C1=C(N)C(C(=O)Nc2ccc(C)c(S(=O)(=O)N3CCCCC3)c2)SC1=Nc1ccc(C)cc1C (configuration not stated)	i	2.1
Clc1ccccc1CNc1nc2ccccc2n2cnnc12	i	-0.47
Nc1nc(C(F)(F)F)c(Br)c(=O)n1N	i	0.8
CCC1CCC(C(=O)NNC(=O)c2cc(-c3ccco3)[nH]n2)CC1 (configuration not stated)	i	1.1
CCOC(=O)c1c(C)n(CCNC(C)=O)c2ccc(OC)cc12	i	0.67
COc1ccc(NC2=CC(c3ccc(F)cc3)N(c3ccc(OC)cc3)C2=O)cc1 (configuration not stated)	i	1.9
Cc1cnc(C(=O)Oc2cccc(Cl)c2Cl)cn1	i	-0.55

More records
mol	KCNQ2 block	KCNQ2 block baseline
COc1ccc(/C=C(\NC(=O)c2ccco2)C(=O)NC(Cc2ccccc2)C(=O)O)cc1 (configuration not stated)	i	0.4
CS(=O)(=O)NCCn1ccc2ccccc21	i	0.06
O=C(Nc1ccccc1C(=O)NCc1ccccc1)c1ccco1	i	1.5
Cc1ccc(S(=O)(=O)Nc2ccc(N(C)S(=O)(=O)c3ccc(C)cc3)cc2)cc1	i	0.02
O=C1/C(=C/c2cccnc2)Sc2ccccc21	i	-0.03
CC(=O)N[C@@H](C)c1nc2ccccc2n1CCCN1CCN(c2nc(-c3ccc(C)cc3)cs2)CC1	i	0.23
O=C(N1CCCCC1)C1(c2ccccc2)CCOCC1	i	-0.26
Cc1nnc(SCC(=O)Nc2ccc(S(=O)(=O)N3CCCC3)cc2)n1N	i	-0.36
O=C(CNC(=O)c1ccccc1)NCC(=O)OCC(=O)c1ccc([N+](=O)[O-])cc1	i	1.4
O=C(NCc1cccs1)c1cccc(Nc2nc3ccc(Br)cc3[nH]2)c1	i	1.3
COc1cc(/C=C(\CC(=O)O)c2nc3ccccc3s2)cc(OC)c1O	i	-2
COc1ccccc1OCCNC(=O)Cc1ccc(S(=O)(=O)N2CCOCC2)s1	i	0.03

Continuation.
mol	KCNQ2 block	KCNQ2 block baseline
COC(=O)CN(c1cccc(C(C)=O)c1)S(C)(=O)=O	i	0.88
COc1ccc(N(CC(=O)N2CCC(Cc3ccccc3)CC2)S(C)(=O)=O)cc1	i	-0.1
CCCn1c(NC(=O)CSCC(=O)Nc2cc(C)on2)nc2ccccc21	i	-0.09
COc1cc2nc(C3CCC3)nc(N3CCN(c4ccccn4)CC3)c2cc1OC	i	1.6
COc1ccc(-c2cc3nc4n(c(=O)c3s2)CCC4)cc1	i	1.9
CCC(=O)n1nc(-c2ccc(OC)cc2)nc1SC	i	-1.1
O=C(CN1CCSCC1)c1c[nH]c2ccccc12	i	1.5
CC1CCC(C(=O)NC(C(=O)NCc2cccnc2)C(C)C)CC1 (configuration not stated)	i	3.4
COc1cccc(N(Cc2nnc3n2CCCCC3)C(=O)Nc2ccccc2)c1	i	-1.6
N#Cc1cc(-c2ccccc2)cnc1Sc1ccccc1	i	-0.16
COc1ccc(NC2CCCN(C(=O)c3cccc(N4CCNC4=O)c3)C2)cc1 (configuration not stated)	i	-0.66
O=C(c1ccccc1)N1CCN(CC(O)COc2cccc3ccccc23)CC1 (configuration not stated)	i	0.18

(list continues)
mol	KCNQ2 block	KCNQ2 block baseline
CCC(=O)c1cn(CCOc2ccccc2OC)c2ccccc12	i	0.02
CCC(C)n1c(-c2cc(OC)c(OC)c(OC)c2)nc2nc3ccccc3nc21 (configuration not stated)	-6.8*	0.41*
O=S(=O)(NCc1csc(-c2cccs2)n1)c1cccs1	i	-0.94
O=C(CSc1cccc2cccnc12)Nc1cc(C(=O)O)cc(C(=O)O)c1	i	-0.59
CCOC(=O)CCNC(=O)N1CCCC(C(=O)c2cccc(OC(C)C)c2)C1 (configuration not stated)	i	0.84
N#Cc1ccc(NC(=O)Cn2cnc(S(=O)(=O)N3CCCC3)c2)cc1	i	0.29
Cc1ccsc1C(=O)Nc1ccc(O)c(-c2nc3ccccc3s2)c1	i	-0.03
Cc1ccc(NC(=O)c2sc3ncn(CC(=O)N4CCOCC4)c(=O)c3c2C)c(Br)c1	i	0.02
S=C(NCCc1ccccc1)Nc1ccc(Br)cn1	i	0.16
CCCC(=O)NC(=S)Nc1ccc(C(C)=O)cc1	i	-0.63
O=C(O)/C(=N/NC(=O)c1ccc(Cl)cc1)c1ccccc1	i	-0.79
Cc1ccc(NC(=O)CS(=O)CC(=O)NCCCc2ccccc2)cc1Cl (configuration not stated)	i	1.5

Further results follow.
mol	KCNQ2 block	KCNQ2 block baseline
CCNC(=O)Nc1cc(OC)c(OC)cc1C(=O)O	i	-0.77
Clc1ccc(-c2nnc(NC3=NCCCCC3)o2)cc1	i	1.1
OCCC1CN(Cc2cn[nH]c2C2CCCCC2)CCN1Cc1ccccc1 (configuration not stated)	i	-0.05
CCOCCCNC(=S)N1CCC(C(=O)c2ccc3c(c2)OCCO3)CC1	i	-0.34
CSc1ccc(S(=O)(=O)Nc2ccc(OCC(=O)N3CCOCC3)cc2)cc1	i	-0.25
CC(C)(C)NC(=O)NC(=O)COC(=O)CNC(=O)C1CCCCC1	i	2.1
Cc1nc(S(=O)(=O)Cc2ccccc2Cl)nc2c1CCC2	i	1.8
O=S(=O)(NCc1cn2ccccc2n1)c1cccs1	i	-0.16
Cc1ccc(S(=O)(=O)N(C)c2ccc(N)cc2)cc1	i	0.82
CC(C)(C)c1ccc(Cn2nnc3c(=O)[nH]c(C4CCCN(C(=O)Cc5cccs5)C4)nc32)cc1 (configuration not stated)	i	-0.23
Cc1ccc(S(=O)(=O)/N=C(/c2ccc(F)cc2)N2CCCC2)cc1	i	-0.01
CCOC(=O)c1sc2nc(C(C)C)c3c(c2c1N)CC(C)(C)OC3	i	-2.5

Next section.
mol	KCNQ2 block	KCNQ2 block baseline
CCCCN=CC1=C(O)C(C(=O)OC)C(C)(C)CC1=O (configuration not stated)	i	1.1
CC1=C(C(=O)Nc2ccc(F)cc2)C(c2cccc(C)c2)n2nc(CCCO)nc2N1 (configuration not stated)	i	0.95
O=S(=O)(Nc1ccc(S(=O)(=O)Nc2ccccc2)cc1)c1ccccc1	i	-2.7
O=C(COc1ccccc1Cl)N1CCc2ccccc2C1	i	1.2
O=C(COc1ccccc1)NNC(=S)NC(=O)c1ccccc1	i	-0.15
COc1ccc(C(=O)c2nc3c(n2O)CCCC3)cc1OC	i	2.1
COc1cc2c(cc1OC)C(SC)=NC1(CCCC1)C2	i	-0.16
O=C(COC(=O)c1cc(S(=O)(=O)N2CCCCC2)ccc1N1CCOCC1)c1ccccc1	i	0.02
O=C(Nc1ccccc1C(=O)O)c1cccc(S(=O)(=O)Nc2ccc(Br)cc2)c1	i	2
N#CC1=C2Nc3ccccc3N2C(=O)NC1(c1ccccc1)C(F)(F)F (configuration not stated)	i	-0.51
Cc1nc(SCC(=O)N2CC(=O)Nc3ccccc32)c2c(C)c(C)sc2n1	i	1.7
CC(C(=O)NC1CCCC1)N(Cc1ccco1)C(=O)c1snc(C(=O)NC2CCCC2)c1N (configuration not stated)	i	-0.22

Individual results from above:
COc1cccc(N(Cc2nnc3n2CCCCC3)C(=O)Nc2ccccc2)c1 | KCNQ2 block baseline = -1.6
Cc1ccc(S(=O)(=O)/N=C(/c2ccc(F)cc2)N2CCCC2)cc1 | KCNQ2 block baseline = -0.01
CCCC(=O)NC(=S)Nc1ccc(C(C)=O)cc1 | KCNQ2 block baseline = -0.63
